VDR inh = vitamin D3 receptor (human) inhibition | Potency, µM, for the others: max response, negative = inhibition, actives largely listed as inhibitors | actives 0.93% (n = 400,000) | VDR-SRC2-3 peptide fluorescence polarization, 2 h | AID 504847; active = well fitted inhibition curve with a large enough effect; inconclusive = small, poorly fitted or top-dose-only effect, or another doubt; inactive = no such curve, though single readings can be large or run the other way; also: series mostly up to about 120 µM
Target sequence (P11473 whole entry, looked up): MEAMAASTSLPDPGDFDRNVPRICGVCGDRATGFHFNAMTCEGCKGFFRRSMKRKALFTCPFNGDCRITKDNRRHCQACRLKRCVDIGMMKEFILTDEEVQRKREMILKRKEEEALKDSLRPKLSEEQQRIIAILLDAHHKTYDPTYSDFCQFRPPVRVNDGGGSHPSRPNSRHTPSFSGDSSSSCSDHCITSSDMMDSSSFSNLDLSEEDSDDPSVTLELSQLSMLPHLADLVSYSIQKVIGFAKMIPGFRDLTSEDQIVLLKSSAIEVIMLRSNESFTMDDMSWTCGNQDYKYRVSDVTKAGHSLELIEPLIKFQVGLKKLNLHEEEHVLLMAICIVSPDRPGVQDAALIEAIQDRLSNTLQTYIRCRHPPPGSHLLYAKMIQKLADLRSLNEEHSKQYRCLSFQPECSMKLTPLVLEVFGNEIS
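Fluorescence polarization assay measuring small-molecule disruption of VDR binding to the coregulator peptide SRC2-3. Compounds were pin-transferred (23 nl) into the reagent mix and incubated 2 h at room temperature before reading.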
Starred values were filed as active, the others as inactive. % is scaled to controls: 0 for no effect and ±100 for the full control effect; potency is read from the fitted curve at half-maximal effect. A portion of the library; rates above refer to the full screens.

What do the screens show for `CCOC(=O)c1c(NC(=O)CSc2nc3ccccc3s2)sc(C(C)=O)c1C`?
VDR inh: 13.0%

Results for COc1cc(OC)cc(C(=O)Nc2cccc3nc(C)ccc23)c1 ?
VDR inh: -7.0%

What do the screens show for `CCNC(=O)CON=C1c2ccccc2-c2ccccc21`?
VDR inh: -4.5%

Results for CNC(=O)C(=O)NCCC1CCCCN1S(=O)(=O)c1cccs1 (centres undefined) ?
VDR inh: -8.6%

What do the screens show for `COc1ccc(OC)c(NC(=O)C(C)n2c(=O)cc(C)c3c(C)nn(-c4ccccc4)c32)c1` (centres undefined)?
VDR inh: 12.7%

What do the screens show for `COC(=O)c1sccc1NC(=O)CC1C(=O)NCCN1C(=O)c1ccc(N(C)C)cc1` (centres undefined)?
VDR inh: -0.8%

What do the screens show for `CN1CCN(CCCNC(=O)c2ccc(CSCc3cccc(Cl)c3)o2)CC1`?
VDR inh: 6.6%

Results for Cc1ccc(C(=O)NNC(=O)c2ccoc2C)s1 ?
VDR inh: -11.9%

How did Cc1cc(C(F)(F)F)n2ncc(C(=O)O)c2n1 do in these assays?
VDR inh: -2.0%

Results for Cc1ccc(Oc2ccc(OCC(=O)NC(C)C(=O)O)cc2)cc1 (centres undefined) ?
VDR inh: 5.3%

How did CCOc1ccc(NC(=O)C2CCCN(C(=O)Nc3ccccc3)C2)cc1 (centres undefined) do in these assays?
VDR inh: -14.4%

What do the screens show for `CC(C)n1c(Oc2ccc(F)cc2)nc2c1c(=O)n(C)c(=O)n2C`?
VDR inh: 9.0%

What do the screens show for `COc1ccc(OC)c2sc(N(CCCN(C)C)C(=O)c3ccco3)nc12`?
VDR inh: 15.8%

Results for Cc1cc(NN)nc(Cc2ccccc2)n1 ?
VDR inh: -12.3%

What do the screens show for `c1ccc(C2C/C(=N\N3CCOCC3)c3ccccc3O2)cc1` (centres undefined)?
VDR inh: -13.1%

How did CCn1c(SCC(=O)Nc2cc(C)on2)nnc1-c1ccc(S(=O)(=O)N2CCN(C)CC2)cc1 do in these assays?
VDR inh: 5.4%

How did CCC(=O)N1CCc2cc(Br)cc(S(=O)(=O)N3CCC(C(=O)Nc4ccccc4CC)CC3)c21 do in these assays?
VDR inh: -6.0%

How did CCC(CN(C)C)Oc1cc(NCc2ccccc2)c2ncn(C(C)C)c2c1 (centres undefined) do in these assays?
VDR inh: inconclusive

How did O=c1ccc(-c2ccc([N+](=O)[O-])cc2)nn1-c1ccccc1 do in these assays?
VDR inh: -3.6%

What do the screens show for `CC1CC(=O)Nc2ccccc2N1C(=O)CSc1nnnn1C` (centres undefined)?
VDR inh: -14.7%

7 consecutive entries out of the list so far, for reference:
What do the screens show for `CCOC(=O)c1c(NC(=O)CSc2nc3ccccc3s2)sc(C(C)=O)c1C`?
VDR inh: 13.0%

Results for COc1cc(OC)cc(C(=O)Nc2cccc3nc(C)ccc23)c1 ?
VDR inh: -7.0%

What do the screens show for `CCNC(=O)CON=C1c2ccccc2-c2ccccc21`?
VDR inh: -4.5%

Results for CNC(=O)C(=O)NCCC1CCCCN1S(=O)(=O)c1cccs1 (centres undefined) ?
VDR inh: -8.6%

What do the screens show for `COc1ccc(OC)c(NC(=O)C(C)n2c(=O)cc(C)c3c(C)nn(-c4ccccc4)c32)c1` (centres undefined)?
VDR inh: 12.7%

What do the screens show for `COC(=O)c1sccc1NC(=O)CC1C(=O)NCCN1C(=O)c1ccc(N(C)C)cc1` (centres undefined)?
VDR inh: -0.8%

What do the screens show for `CN1CCN(CCCNC(=O)c2ccc(CSCc3cccc(Cl)c3)o2)CC1`?
VDR inh: 6.6%

Next section:
Results for Cc1cc2c3c(c1)C(C)CC(C)(C)N3C(=O)C2=C(C#N)C#N (centres undefined) ?
VDR inh: -8.4%

How did CCN(CC)CCNC(=O)c1ccc(Cn2c(SCc3ccccc3)nc3cccnc32)cc1 do in these assays?
VDR inh: 7.4%

How did Cn1c(/C=N/Nc2nc3ccccc3[nH]2)nc2ccccc21 do in these assays?
VDR inh: 8.0%

How did CCOc1ccc(N=C2C(=O)Nc3ccc(C)c(Br)c32)cc1 do in these assays?
VDR inh: inconclusive

How did O=C(Cn1nc(Cc2ccncc2)c2ccccc2c1=O)Nc1cccc(C(F)(F)F)c1 do in these assays?
VDR inh: -9.2%

What do the screens show for `Cc1ccc(Cl)cc1NC(=O)Cn1nnc2sc3c(c2c1=O)CCC(C(C)(C)C)C3` (centres undefined)?
VDR inh: 5.0%

Results for CCN1/C(=C2/SC(=S)NC2=O)Sc2ccccc21 ?
VDR inh: 1.1%

How did O=C(O)CC(SCC(=O)NC1CCCc2ccccc21)C(=O)O (centres undefined) do in these assays?
VDR inh: -4.5%

Results for CCOC(=O)c1c(S(=O)(=O)N2CCCC(C(=O)N3CCN(c4ccccc4)CC3)C2)c(C)n(C)c1C (centres undefined) ?
VDR inh: 6.6%

How did COc1ccc(OC)c(-n2nnnc2SCC(=O)Nc2ccccc2OC)c1 do in these assays?
VDR inh: 2.9%

Results for COc1ccc(C)cc1NCc1cccc(OC)c1OC ?
VDR inh: -1.2%

Results for COc1ccc2c(c1)Sc1ccccc1N2CCN(C)C ?
VDR inh: -3.4%

How did CCSC(C)CC1C/C(=N/O)c2c(CC)noc2C1 (centres undefined) do in these assays?
VDR inh: 18.9%

Results for CSc1nnc(SCC#N)s1 ?
VDR inh: -2.2%

How did CC1(C)C2CCC1(CS(=O)(=O)N1CCC(C(N)=O)CC1)C(=O)C2 (centres undefined) do in these assays?
VDR inh: 6.7%

How did CC(Cc1cccnc1)NC(=O)c1cc(COc2ccc(F)cc2Cl)on1 (centres undefined) do in these assays?
VDR inh: 10.4%

What do the screens show for `Cc1ccc(N2C(=O)C3C4C=CC(CC4)C3C2=O)c([N+](=O)[O-])c1` (centres undefined)?
VDR inh: -6.4%

How did O=C(N=C1SC2CS(=O)(=O)CC2N1Cc1ccccc1Cl)C1CCCO1 (centres undefined) do in these assays?
VDR inh: -7.1%

How did CCSc1nc(C2CC2)cc(-c2ccco2)c1C#N do in these assays?
VDR inh: -13.0%

What do the screens show for `Cc1ccc(C(=O)Nc2ccc(Cl)cc2C(F)(F)F)c(Cl)c1`?
VDR inh: 5.1%

Overlap with the part before: 2 entries; new compounds follow.
How did CCSc1nc(C2CC2)cc(-c2ccco2)c1C#N do in these assays?
VDR inh: -13.0%

What do the screens show for `Cc1ccc(C(=O)Nc2ccc(Cl)cc2C(F)(F)F)c(Cl)c1`?
VDR inh: 5.1%

What do the screens show for `COc1ccc(-c2nc3cnc(N4CCOCC4)nc3n(Cc3cccs3)c2=O)cc1`?
VDR inh: 1.0%

What do the screens show for `CCOC(=O)C1(CCc2ccccc2)CCN(Cc2ccc(OC)cc2)CC1`?
VDR inh: -18.8%

What do the screens show for `Cc1ccc(-c2nc(NC(=O)CSc3nnc4scc(-c5ccccc5)n34)ns2)cc1`?
VDR inh: -13.7%

Results for CS(=O)(=O)c1ccc([C@H](O)[C@H](CO)NC(=O)C(Cl)Cl)cc1 ?
VDR inh: -1.3%

How did COc1ccc(-c2cnc(C)o2)cc1S(=O)(=O)Nc1ccc(C)c(F)c1 do in these assays?
VDR inh: 9.2%

What do the screens show for `COC(=O)Cc1[nH]nc2c1C(c1c[nH]c3ccccc13)C(C#N)=C(N)O2` (centres undefined)?
VDR inh: 10.8%

How did CCc1cccc(NC(=O)c2ccc3c(=O)n4nc(Nc5ccccc5OC)sc4nc3c2)c1 do in these assays?
VDR inh: 0.6%

What do the screens show for `CCCN(Cc1ccccc1)C(=O)Nc1ccc2c(c1)nnn2C`?
VDR inh: 0.8%

How did C[C@@H](C(=O)Nc1ccccc1N1CCOCC1)N1C(=O)C2CCCCC2C1=O (some centres undefined) do in these assays?
VDR inh: 1.2%

How did COc1cc(OC)cc(-c2oc(=O)c3cc(OC)c(OC)cc3c2C#CCCO)c1 do in these assays?
VDR inh: -15.3%

How did COc1ccc(OC)c(C(=O)CSc2nccc(-c3ccc(Br)cc3)n2)c1 do in these assays?
VDR inh: -4.4%

Results for Oc1cc(Br)ccc1C=Nc1ccc(N2CCCCC2)cc1 ?
VDR inh: 13.6%

How did O=C(O/N=C/c1ccc(Br)cc1)c1ccc(F)cc1 do in these assays?
VDR inh: -10.8%

What do the screens show for `COc1cccc(NC(=O)CN2C(=O)NC(Cc3c[nH]c4ccccc34)C2=O)c1` (centres undefined)?
VDR inh: 1.5%

What do the screens show for `COc1ccc(C2c3cc(OC)c(OC)cc3CC(=O)N2c2ccc(C)c(F)c2)cc1` (centres undefined)?
VDR inh: 4.7%

Results for Oc1c(C(c2ccc(Cl)cc2)N2CCCC2)sc2nc(-c3ccco3)nn12 (centres undefined) ?
VDR inh: 2.2%

What do the screens show for `OC(CN1CCOCC1)CN1CCOCC1`?
VDR inh: -8.9%

What do the screens show for `CC(=O)c1cc2c(cc1NC(=O)C1CC1)OCO2`?
VDR inh: 15.0%

Results for CC1(C)Oc2ccc3ccc(=O)oc3c2-c2cnoc21 ?
VDR inh: 3.5%

How did COC(=O)C1CSC(c2ccc(Cl)cc2)N1C(=O)c1ccccc1 (centres undefined) do in these assays?
VDR inh: -3.3%

What do the screens show for `Cn1c(=O)c2c(nc(SCCCO)n2Cc2ccccc2Cl)n(C)c1=O`?
VDR inh: -2.2%

How did Cc1ccc(C)c(S(=O)(=O)N2CCN(C(=O)c3cncc(Br)c3)CC2)c1 do in these assays?
VDR inh: -12.8%

How did CC(C)C[C@@]12C(=O)N(c3cccc(F)c3)C(=O)N1[C@H](c1ccc(Cl)cc1)[C@@H]1C(=O)N(C3CCCCC3)C(=O)[C@@H]12 do in these assays?
VDR inh: inconclusive

Results for CCC1C/C(=C\c2cccnc2)C(=O)/C(=C/c2cccnc2)C1 (centres undefined) ?
VDR inh: 22.4µM*

What do the screens show for `c1ccc(C(c2nnnn2C2CCCC2)N2CCN(c3nc4ccccc4s3)CC2)cc1` (centres undefined)?
VDR inh: 5.5%

What do the screens show for `Clc1ccc(OCc2nnc3n2N=C(c2ccc4c(c2)OCCO4)CS3)c(Cl)c1`?
VDR inh: -11.1%

What do the screens show for `COC(=O)c1cccc(NC(=S)Nc2cc(Cl)ccc2OC)c1`?
VDR inh: -7.9%

How did Cc1ccc(C)c(S(=O)(=O)Nc2ccc(C(=O)NCC(c3ccco3)N(C)C)cc2)c1 (centres undefined) do in these assays?
VDR inh: -21.7%

What do the screens show for `c1ccc([C@@H]2CN3CCSC3=N2)cc1`?
VDR inh: 4.6%

Results for CC(=O)NC(Cc1cc(C)ccc1C)C(=O)N1CCN(C(=O)c2ccc(Br)cc2)CC1 (centres undefined) ?
VDR inh: 5.3%

What do the screens show for `COc1ccccc1CNC(=O)c1cc(C)nn1-c1ccccc1`?
VDR inh: 14.7%

How did O=Cc1cc(N=Nc2ccc(S(=O)(=O)O)cc2)ccc1O do in these assays?
VDR inh: inconclusive

How did Oc1ccc(/C=N/N=C/c2ccc(O)cc2)cc1 do in these assays?
VDR inh: -7.6%

How did COC(=O)C1=C(C)NC(=O)C1(NC(=O)c1ccccc1C)C(F)(F)F (centres undefined) do in these assays?
VDR inh: -2.8%

Results for COc1cc(NC(=O)CN(C)S(=O)(=O)c2ccc3[nH]c4c(c3c2)CCCC4)cc(OC)c1OC ?
VDR inh: 7.4%

Results for COC(=O)Cc1ccc(NC(=S)NCCC(C)C)cc1 ?
VDR inh: -8.0%

What do the screens show for `COc1cccc(-c2csc(N3CCN(C(=S)Nc4cccc(C)c4)CC3)n2)c1`?
VDR inh: -13.5%

What do the screens show for `CCC(C)C(Nc1ccc(C(=O)OC)cc1[N+](=O)[O-])C(=O)OC` (centres undefined)?
VDR inh: -10.4%

How did Cc1cccc(NS(=O)(=O)c2cc(C(=O)NCCC3=CCCCC3)ccc2Cl)c1 do in these assays?
VDR inh: 10.2%

What do the screens show for `Cc1cccc(C(=O)NNc2ncnc3c2cnn3-c2ccc(C)cc2C)c1`?
VDR inh: 16.9%

What do the screens show for `CCN(CC)CCN(C)C(=O)c1ccc(OC2CCN(C(=O)C3CC3)CC2)cc1`?
VDR inh: 3.6%

Results for COc1cc(CNc2ccc3[nH]c(=O)[nH]c3c2)ccc1OCc1cccc(C)c1 ?
VDR inh: -13.4%

How did COC(=O)c1c(C(C)=O)cnc2ccc(Br)cc12 do in these assays?
VDR inh: -15.5%

Results for COc1ccc2[nH]c3c(=O)n(Cc4ccc(C(=O)N5CCCCCC5)cc4)c(=S)[nH]c3c2c1 ?
VDR inh: -2.5%

Results for COc1cc(/C=C(\C#N)C(=O)Nc2cc(C(F)(F)F)ccc2Cl)ccc1OCC(=O)Nc1cccc(C(F)(F)F)c1 ?
VDR inh: 3.6%

What do the screens show for `O=C(Nc1nccs1)c1cc(Cl)nc2ccccc12`?
VDR inh: 3.8%

What do the screens show for `O=C(CN(Cc1ccco1)C(=O)CNS(=O)(=O)c1ccc(Cl)cc1)NC1CCCCC1`?
VDR inh: -3.4%

How did Cc1cc(Cl)ccc1OCC(=O)N(Cc1ccco1)c1c(N)n(Cc2ccccc2)c(=O)[nH]c1=O do in these assays?
VDR inh: inconclusive

What do the screens show for `CNC(=S)N(Cc1ccc(OC)cc1)Cc1cc2ccc(C)cc2[nH]c1=O`?
VDR inh: 2.9%

What do the screens show for `COc1cccc(-n2cc(CNCc3cn(C)nc3-c3ccccc3F)cn2)c1`?
VDR inh: 6.8%

Results for COc1ccc(CNC(=O)CCNC(=O)N2CCn3c2nc2ccccc23)cc1 ?
VDR inh: -19.9%

How did CCCn1c(SCC(=O)c2c(N)n(C3CC3)c(=O)[nH]c2=O)nnc1-c1ccncc1 do in these assays?
VDR inh: -23.7%

Results for COc1ccc(S(=O)(=O)N2CCOC2CNC(=O)C(=O)NCCN(C)C)cc1 (centres undefined) ?
VDR inh: 12.2%

How did COc1ccc(N2CCN(c3oc(Cc4ccccc4)nc3C#N)CC2)cc1 do in these assays?
VDR inh: 8.8%

What do the screens show for `CCOc1ccc(CCNC(=O)c2cc3c(-c4ccccc4F)nn(C)c3s2)cc1`?
VDR inh: -21.3%

How did COc1cc(C(=O)Nc2nc3nc(-c4ccccc4)cc(=O)n3[nH]2)cc(OC)c1OC do in these assays?
VDR inh: 3.7%
